Hsc70 = Hsc70 inhibitors, probe displacement, primary screen, biochemical, fluorescence polarization (AID 568); Heat shock cognate 71 kDa protein (Homo sapiens); Hsc70 fluorescence polarization, probe displacement; higher % means a stronger effect; strong numbers were not always called active; displacement, % at 20 µM; hits with a dose series show IC50 in µM; 83,000 tested, under 10 active;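 active = displacement above 50% without optical interference and an IC50 on retest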;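 note: ATPase domain with a fluorescein-tagged ATP probe; 0% = vehicle and 100% = excess ADP; read after one hour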
MT1-MMP promoter = inhibitors of MT1-MMP promoter transcription, cell-based, luciferase reporter, luminescence (AID 618); MT1-MMP promoter luciferase reporter cells, luminescence; calls from a first round at 10 µM; hits with a dose series show EC50 in µM; hit rate 0.62% among 87,000;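 active = over half of the reporter light lost at 10 µM or EC50 under 50 µM; inactive = the rest and hits that failed the dose series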;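 note: actives suppress MT1-MMP promoter-driven transcription so potencies describe inhibitors; HT1080 fibrosarcoma cells; overnight exposure; toxic or luciferase-blocking compounds were not removed from the actives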
WNV protease inh = inhibitors of WNV NS2B-NS3 protease, primary screen, biochemical, fluorogenic substrate | Genome polyprotein (West Nile virus), P06935 | fluorogenic substrate Ex360/Em465; hits give low values | z-score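 (tested at a level between 10 and 100 µM)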 | hit rate 0.18% among 65,000 | AID 577, 2007;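 active = z-score at -3 or under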;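 note: score is relative to mean and spread of the compound wells of a plate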
Target sequence (P06935 1371-1501 limits assumed): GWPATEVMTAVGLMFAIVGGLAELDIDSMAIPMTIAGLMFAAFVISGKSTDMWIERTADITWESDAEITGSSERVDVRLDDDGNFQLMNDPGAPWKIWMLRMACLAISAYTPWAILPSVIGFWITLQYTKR
Target sequence (P06935 1502-1679 limits assumed): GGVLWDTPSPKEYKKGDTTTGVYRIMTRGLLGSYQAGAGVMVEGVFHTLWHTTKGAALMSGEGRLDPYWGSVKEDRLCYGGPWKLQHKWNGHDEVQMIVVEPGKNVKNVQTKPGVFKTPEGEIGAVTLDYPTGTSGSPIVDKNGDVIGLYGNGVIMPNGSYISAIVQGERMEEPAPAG
The depositor's hits bear a star; i = inactive; . = no result given; + = active, no number. Only part of the results is shown; count on the stated rates, not on these rows.

SMILES	Hsc70	MT1-MMP promoter	WNV protease inh
O=C(Nc1ccon1)c1cc(-c2ccccc2)nc2ccccc12	-1.1%	i	-0.62
Oc1oc(-c2ccccc2)nc1C=NCc1ccccc1	-1.1%	i	.
Cc1ccc(S(=O)(=O)c2cccc(S(=O)(=O)N3CCCC3)c2)cc1S(=O)(=O)N1CCCC1	-6.4%	i	-0.02
COc1ccc(S(=O)(=O)NC(C)C(=O)Nc2ccccc2F)cc1 (stereo unspecified)	0.3%	i	-0.94
O=C1CC(SCc2nc3ccccc3[nH]2)C(=O)N1c1cccc(Cl)c1 (stereo unspecified)	-1.8%	i	.
CCOCCn1c(SCC)nc2c1c(=O)[nH]c(=O)n2C	-2.7%	i	-0.77
Cc1ccc(Cl)c2c1NC(=O)C2(O)CC(=O)c1ccccc1O (stereo unspecified)	-1.7%	i	-0.35
Cc1sc(NC(=O)c2oc3ccccc3c2C)c(C#N)c1C	-9.2%	i	-0.81
COCCn1c(SCC(N)=O)nnc1-c1c[nH]c2ccccc12	-2.0%	i	1.58
COc1ccccc1-c1coc2cc(O)cc(O)c2c1=O	-1.9%	i	-0.66
Cc1cc(C)n2c(SCCN3C(=O)c4ccccc4C3=O)nnc2n1	1.2%	i	-0.44
Cc1ccc(-c2nn(C)c(=O)c3ccccc23)cc1S(=O)(=O)N1CCCC1	-1.0%	i	0.9
CCOC(=O)c1c(-c2cccs2)csc1NC(=O)CN(CC)CC	-2.6%	i	.
O=C(Nc1ccccc1C(F)(F)F)c1cc(S(=O)(=O)N2CCC3(CC2)OCCO3)ccc1F	3.9%	i	0.56
O=C(c1ccc(COc2ccccc2Cl)o1)N1CCN(Cc2ccc3c(c2)OCO3)CC1	0.5%	i	-2.12
O=C(Nc1ccc2c(c1)OCO2)C(c1ccccc1)N1CCN(C(=O)c2ccco2)CC1 (stereo unspecified)	0.3%	i	-0.84
Cc1ccccc1N(C(=O)Cn1nnc(-c2cccs2)n1)C(C(=O)NCCC(C)C)c1ccco1 (stereo unspecified)	-1.1%	i	.
COc1ccc(NCc2nnc(SCC#N)n2-c2ccccc2OC)cc1	2.9%	i	-0.35
CC(=O)c1cccc(-n2nnnc2SCC(=O)Nc2cccc(NC(=O)c3ccco3)c2)c1	-1.0%	i	0.03
CCN(CC)S(=O)(=O)c1cccc(C(=O)Nc2cc(C)nn2-c2nc(C)cc(C)n2)c1	6.4%	i	0.35
COc1ccccc1C1C(C(=O)c2sc(C)nc2C)=C(O)C(=O)N1CCN1CCOCC1 (stereo unspecified)	-1.9%	i	-0.66
COc1ccc(NC(=O)CN2CCN(S(=O)(=O)c3ccc(C(C)C)cc3)CC2)cc1OC	-5.0%	i	-0.31
CC(C)(CO)NC(=O)C(c1ccccc1)c1ccccc1	-10.0%	i	1.57
c1ccc(Cn2ncc3c(N4CCCCC4)ncnc32)cc1	2.0%	i	0.83
COc1ccc(OC)c(C2=Nn3c(nnc3C3CCCCC3)SC2)c1	3.9%	i	1.01

The listing continues:
SMILES	Hsc70	MT1-MMP promoter	WNV protease inh
COc1ccc(C2N(c3ccc(OC)cc3)C(=O)C3CCCN32)cc1 (stereo unspecified)	-0.5%	i	-2.41
Cc1nc(SCC(=O)NCCc2ccc(Cl)cc2)nc(C)c1C	2.6%	i	.
Cc1cc(NC(=O)CCC(=O)N(CC(=O)NCC2CCCO2)c2ccc3c(c2)OCCO3)no1 (stereo unspecified)	-3.0%	i	.
CCOC(=O)N1CCN(S(=O)(=O)c2cccc3ccc(C)nc23)CC1	-2.3%	i	-0.83
COc1cccc(-c2cc(C(=O)Nc3cc(OC)c(OC)c(OC)c3)no2)c1	2.1%	i	-0.43
COC(=O)c1ccc(OCCn2cnc3ccccc3c2=O)cc1	1.8%	i	-0.16
COC(=O)c1ccc(CSc2nc3c(c(=O)n2-c2ccccc2)SCC3)o1	-2.9%	i	-0.13
C=CCn1c(COc2ccc(CC)cc2)nnc1SCC(=O)NC1CCS(=O)(=O)C1 (stereo unspecified)	3.2%	i	.
COc1ccc(CNC(=O)COC(=O)C2=COCCO2)cc1	7.0%	i	.
Cc1ccc(C(c2nnnn2CCC(C)C)N2CCN(C)CC2)cc1 (stereo unspecified)	3.2%	i	0.76
Cc1nc2c(C(=O)NCCC3=CCCCC3)c[nH]n2c(=O)c1Cl	2.0%	i	0.24
Cc1nnc2n(-c3ccccc3)c(=O)c3c4c(sc3n12)CC(C)CC4 (stereo unspecified)	-0.3%	i	0.96
C=CCNc1nc(NC(C)(C)CO)nc(OCC)n1	0.8%	i	1.21
CCOC(=O)CN1CC23C=CC(O2)C(C(=O)NC2CCCCCC2)C3C1=O (stereo unspecified)	8.3%	i	-0.55
CCN(CC)CCC(=O)NC(C)(C)Cc1ccc(O)cc1	0.7%	i	0.25
Cc1nc(Cc2nnc(SCc3nc(N)nc(Nc4ccccc4C)n3)o2)cs1	2.0%	i	-0.8
CC(=O)c1c(C(C)=O)c(C)n(NC(=O)c2ccccc2O)c1C	3.1%	i	0.47
CCOC(=O)c1ccc(Oc2nc(NC)nc(OC)n2)cc1	5.7%	i	-0.17
CCCC1C(C#N)=C(N)Oc2cc(C)n(C)c(=O)c21 (stereo unspecified)	0.3%	i	0.25
COC(=O)c1cccc(NC(=O)CSc2nc(C)cc(=O)[nH]2)c1	-6.4%	i	0.28
Cc1ccccc1N1C(=O)c2ccccc2NC1c1ccncc1 (stereo unspecified)	-3.5%	i	.
O=C(CN1CCCCC1)Nc1cccc2c1OCO2	0.7%	i	.
CCn1cc(C(=O)Nc2cc3c(cc2NC(C)=O)OCCO3)c(=O)c2ccc(C)nc21	-3.0%	i	-1.02
Cc1ccc(-c2noc(CCC(=O)NCc3ccc4c(c3)OCO4)n2)cc1	4.5%	i	-1.04
Cc1cccn2c(=O)c3cc(C(=O)NCC4CCCO4)c(=N)n(CCN4CCOCC4)c3nc12 (stereo unspecified)	1.1%	i	.

Two entries from above, with values under each structure:
Screens in order: Hsc70 | MT1-MMP promoter | WNV protease inh
> Cc1sc(NC(=O)c2oc3ccccc3c2C)c(C#N)c1C
    -9.2% | i | -0.81
> COCCn1c(SCC(N)=O)nnc1-c1c[nH]c2ccccc12
    -2.0% | i | 1.58

Remaining list, next part:
SMILES	Hsc70	MT1-MMP promoter	WNV protease inh
CCOC(=O)N1CCN(C(=O)c2ccc3c(=O)n(CC4CCCO4)c(=S)[nH]c3c2)CC1 (stereo unspecified)	4.7%	i	.
CCn1c(CNC(=O)c2ccco2)nnc1SCC(=O)Nc1ccc(Br)cc1F	-6.3%	i	.
Cc1cc(C)n(-c2nc3ccccc3nc2N2CCCCCC2)n1	-7.6%	i	-1
O=C(Nc1ccc2oc(-c3ccccc3F)nc2c1)c1cncc(Br)c1	-2.1%	i	0.36
COc1c2c(nc3occc13)C(CCC(C)(C)O)(OC)C(O)CC2 (stereo unspecified)	2.0%	i	-0.5
CC1CCCN(CC(=O)Nc2ccc(S(=O)(=O)N3CCCCCC3)cc2)C1 (stereo unspecified)	-0.1%	i	-1.11
COc1ccc(N2CCN(C(=O)CSc3nnc4nc(C)cc(C)n34)CC2)cc1	1.7%	i	-0.92
Cc1nn2c3cc(N4CCOCC4)ccc3nc2c2ccccc12	-1.6%	i	1.97
c1nnc2c3c4c(sc3ncn12)CCCC4	2.3%	i	0.53
Cc1ccc(S(=O)(=O)Nc2nc3ccccc3s2)cc1	-3.3%	i	.
CN1CCc2nc(SCC(=O)Nc3ccc(F)cc3)c(C#N)cc2C1	2.1%	i	-1.14
CN(C)c1ccc2c(c1)OC(N)=C(C#N)C2c1cccc(F)c1 (stereo unspecified)	-28.9%	+	0.0073
COc1ccc(C(=O)SC2=NCCS2)cc1	1.7%	i	.
CCOC(=O)C1CCCN(C(=O)C2CCN(S(=O)(=O)N3CCC4(CC3)OCCO4)CC2)C1 (stereo unspecified)	-5.0%	i	1.24
O=C(CNCc1ccco1)Nc1ccccc1-n1cccc1	4.7%	i	-0.64
Cc1cc(C)n(-c2nc3ccccc3c3nc(C)nn23)n1	-0.8%	i	0.51
Cc1cc(C2N=C(N)Nc3nc4ccccc4n32)c(C)n1-c1ccccc1Cl (stereo unspecified)	-4.3%	i	-1.49
COc1ccc(N2CCN(Cc3nc(N)nc(Nc4ccc(C)c(Cl)c4)n3)CC2)cc1	3.1%	i	0.57
COc1ccc(S(=O)(=O)N2CCN(C)CC2)c2ccccc12	-0.3%	i	-0.05
Fc1ccc(-c2noc(C3CCN(Cc4cccnc4)CC3)n2)cc1	-6.6%	i	-0.22
CN(CCNC(=O)Cn1c(=O)sc2ccccc21)Cc1ccccc1	3.5%	i	-2.38
CCOC(=O)c1cc2c(=O)n3cccc(C)c3nc2n(CCc2ccc(OC)c(OC)c2)c1=N	-0.1%	i	1.27
CCN1CCN(CCCNC(=O)C2CCCN(c3nnc(-n4cccc4)s3)C2)CC1 (stereo unspecified)	7.0%	i	-1.06
COn1c(SCc2ccccc2)nc2ccccc2c1=O	0.6%	i	.
CC1(C)OC(=O)C(=CNc2ncccn2)C(=O)O1	-10.8%	i	0.22

Continued; the last seven above are carried over.
SMILES	Hsc70	MT1-MMP promoter	WNV protease inh
COc1ccc(S(=O)(=O)N2CCN(C)CC2)c2ccccc12	-0.3%	i	-0.05
Fc1ccc(-c2noc(C3CCN(Cc4cccnc4)CC3)n2)cc1	-6.6%	i	-0.22
CN(CCNC(=O)Cn1c(=O)sc2ccccc21)Cc1ccccc1	3.5%	i	-2.38
CCOC(=O)c1cc2c(=O)n3cccc(C)c3nc2n(CCc2ccc(OC)c(OC)c2)c1=N	-0.1%	i	1.27
CCN1CCN(CCCNC(=O)C2CCCN(c3nnc(-n4cccc4)s3)C2)CC1 (stereo unspecified)	7.0%	i	-1.06
COn1c(SCc2ccccc2)nc2ccccc2c1=O	0.6%	i	.
CC1(C)OC(=O)C(=CNc2ncccn2)C(=O)O1	-10.8%	i	0.22
CCOc1cc(C2NC(=O)NC(C)=C2C(=O)OC(C)CC)cc(Br)c1O (stereo unspecified)	-0.1%	i	-0.74
CC(=O)N1CCc2cc(C(=O)CN3CCN(c4ccccc4F)CC3)ccc21	5.6%	i	-0.56
Cc1cc(NC(=O)CSc2nc(-c3ccco3)cc(C(F)(F)F)n2)n(-c2ccccc2)n1	-8.0%	i	0.00277
CCOC(=O)/C=C1\Nc2ccccc2SC1=O	-1.6%	i	-0.54
Cc1c(C2Nc3ccccc3NC3=C2C(=O)CC(C)(C)C3)cnn1C (stereo unspecified)	4.2%	i	-0.62
Cc1ccc2[nH]c3c(NCCCN4CCCC4=O)ncnc3c2c1	-2.0%	i	0.62
C=CCN1CCN(C(c2cc(OC)ccc2OC)c2nnnn2CC2CCCO2)CC1 (stereo unspecified)	0.2%	i	-1.04
O=C1CN2C(=N1)N(Cc1ccccc1)c1ccccc12	-5.6%	i	-1.11
O=C(CCn1c(=S)[nH]c2ccccc2c1=O)N1CCOCC1	-1.9%	i	2.93
c1ccc(C2Nc3ccccc3Oc3ccccc32)cc1 (stereo unspecified)	-3.2%	i	.
CCCCNC(=O)Cn1cnc2c(cnn2-c2ccc(C)c(C)c2)c1=O	1.6%	i	-0.73
CCOC(=O)Cn1c2ccccc2c2nc3ccccc3nc21	-0.7%	i	0.02
COC(=O)c1ccccc1NC(=O)CSc1nnc(COc2cccc(OC)c2)n1C	-1.9%	i	-1.14
O=C(Nc1cc(C(F)(F)F)ccc1N1CCOCC1)c1cncc(Br)c1	9.1%	i	-0.4
Cc1c(/C(O)=C2/C(=O)C(=O)N(Cc3cccnc3)C2c2cccs2)cnn1-c1ccccc1 (stereo unspecified)	5.3%	i	-0.53
Cc1ccc(S(=O)(=O)CCC(=O)Nc2ccc3c(c2)OCO3)cc1	-1.2%	i	-0.21
O=C(O)CCNc1cc2ccccc2cc1C(=O)O	0.0%	i	-1.15
CCOc1cc2[nH]c(=O)n(CCCN3CCCC3=O)c(=O)c2cc1OCC	0.6%	i	0.85
O=C(Cn1ncc2c(=O)oc3ccccc3c21)N1CCCc2ccccc21	-6.0%	i	0.01
CC(C)C(C(=O)Nc1ccc2c(c1)OCCO2)N1C(=O)c2ccccc2C1=O (stereo unspecified)	1.7%	i	-0.6
O=C(Cn1cnc2c(nnn2Cc2ccc(F)cc2)c1=O)N1CCCCC1	5.5%	i	-0.22
O=C(CCCn1c(=S)[nH]c2cc3c(cc2c1=O)OCO3)N1CCN(c2ccccc2F)CC1	-3.6%	i	0.98
Cc1onc(-c2ccccc2)c1C(=O)n1cccn1	-3.8%	i	-0.89
CCc1c(C)nc2ncnn2c1N1CCCC(C(=O)Nc2ccc(NC(C)=O)cc2)C1 (stereo unspecified)	1.8%	i	.
Cc1ccc(CCNC(=O)C2CCC(=O)N2Cc2cccnc2)cc1 (stereo unspecified)	-3.0%	i	-0.63

Additional entries follow.
SMILES	Hsc70	MT1-MMP promoter	WNV protease inh
COc1ccc(/C(O)=C2/C(=O)C(=O)N(CCCN(C)C)C2c2ccccc2)cc1OC (stereo unspecified)	3.9%	i	-0.39
N#Cc1cc2ccccc2nc1SCC(=O)Nc1ccc(S(=O)(=O)N2CCCC2)cc1	-23.0%	i	0.64
CCc1cc(C)cc(OCCNC(=O)c2ncn[nH]2)c1	0.9%	i	-0.12
Cc1ccc(C(=O)n2cnnc2N)cc1	2.2%	i	.
COc1cccc(-c2cc(C(F)(F)F)n3ncc(C(=O)O)c3n2)c1	0.6%	i	-0.3
COc1cc(OC)c(C2C3=C(CCCC3=O)Nc3nc4ccccc4n32)cc1OC (stereo unspecified)	-10.8%	i	0.88

Assay outcomes: PubChem BioAssay, several laboratories
